# Bioassay records: PubChem BioAssay, several laboratories
# FPR binder: human FPR ligands by binding competition, primary screen, cell-based, FPRL1 counter-screen, flow cytometry; inhibition, %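 (tested at 6.7 µM)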; AID 440, 2006; FPR-expressing cells, fluorescent ligand binding; hit rate 0.74% among 24,000; fMet-Leu-Phe receptor (Homo sapiens), P21462;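 further: 0% = buffer wells and 100% = receptor blocker peptide wells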
# Target sequence (P21462 whole entry, looked up): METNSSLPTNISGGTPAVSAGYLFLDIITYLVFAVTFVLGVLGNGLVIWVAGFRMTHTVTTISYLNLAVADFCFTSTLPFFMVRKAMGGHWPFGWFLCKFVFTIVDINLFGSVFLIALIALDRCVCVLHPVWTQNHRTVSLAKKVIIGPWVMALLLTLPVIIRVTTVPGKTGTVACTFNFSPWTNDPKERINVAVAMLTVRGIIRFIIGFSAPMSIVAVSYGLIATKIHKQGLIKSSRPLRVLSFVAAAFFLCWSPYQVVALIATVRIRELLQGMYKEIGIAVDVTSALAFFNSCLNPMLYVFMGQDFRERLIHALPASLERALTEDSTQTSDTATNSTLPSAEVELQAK
# VCAM-1 augmentation: enhancers of VCAM-1 display on endothelial cells, imaging, high-content imaging, pooled HUVEC, TNFa stimulus (AID 457); Pooled HUVEC, TNFa-induced VCAM-1 immunofluorescence imaging; hits of this screen are not shown here; calls only; hit rate 0.2% among 10,000;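 active means a top-ranked rise in VCAM-1 staining upheld on image or statistical review; inactive means the rest, including candidates rejected on review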;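 further: compounds tested at 5 µM in the well; cells exposed to compound for 24 hours before fixing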
# FPRL1 ligand: human FPRL1 ligands by binding competition, primary screen, cell-based, FPR counter-screen, flow cytometry | FPRL1-expressing cells, fluorescent ligand binding inhibition | inhibition, %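 (tested at 6.7 µM)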 | hit rate 0.3% among 24,000 | AID 441, 2006;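 further: 0% = buffer alone and 100% = receptor blocker peptide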
# Target sequence (P25090 whole entry, looked up): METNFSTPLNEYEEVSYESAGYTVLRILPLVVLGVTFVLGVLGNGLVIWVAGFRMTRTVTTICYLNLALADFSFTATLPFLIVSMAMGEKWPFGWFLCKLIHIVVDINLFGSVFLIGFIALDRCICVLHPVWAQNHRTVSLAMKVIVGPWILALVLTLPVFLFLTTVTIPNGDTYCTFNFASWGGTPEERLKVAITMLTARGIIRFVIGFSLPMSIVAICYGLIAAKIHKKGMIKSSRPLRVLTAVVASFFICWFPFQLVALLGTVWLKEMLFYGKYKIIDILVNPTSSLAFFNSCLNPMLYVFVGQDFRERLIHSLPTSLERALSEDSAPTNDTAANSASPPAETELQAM
# VCAM-1 down: inhibitors of TNFa-induced VCAM-1 surface display, cell-based, plate reader, pooled HUVEC, TNFa stimulus (AID 454) | HUVEC TNFa-induced VCAM-1 surface immunofluorescence, plate reader; numbers were filed only for top-ranked candidate wells | inhibition, % at 5 µM | hit rate 0.2% among 10,000;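 active means compound among top-ranked inhibitors of TNF-induced VCAM-1 adhesion protein staining, with the hit upheld by image or statistical review; inactive means the rest, including hits rejected on review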;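 further: 0% = TNFa with vehicle and 100% = cells without TNFa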
# VCAM-1 imaging: inhibitors of TNFa-induced VCAM-1 surface display, imaging, high-content imaging, pooled HUVEC, TNFa stimulus (AID 456). HUVEC TNFa-induced VCAM-1 surface expression, immunofluorescence imaging; numbers were filed only for top-ranked candidate wells. inhibition, % at 5 µM, or IC50 in µM where a hit was titrated. hit rate 0.2% among 10,000;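 active means top tenth filtered wells with inhibition above zero that passed visual or statistical confirmation; inactive means the rest, including hits rejected on review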;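 further: 0% = stimulated vehicle wells and 100% = unstimulated cells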
# The depositor's hits bear a star; i = inactive; / = no result given.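 How the source made its calls, unless noted: active means mean above 30%; inconclusive means self-fluorescent; inactive means the rest.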 Some of the compounds tested; count on the stated rates, not on these rows.
molecule,FPR binder,VCAM-1 augmentation,FPRL1 ligand,VCAM-1 down,VCAM-1 imaging
Cc1cc(NC(=O)c2ccc(S(=O)(=O)N3CCOCC3)cc2)nc2c1c(=O)oc1ccccc12,3,/,-2,/,/
CC(=O)Nc1ccc(OC(=O)c2cccnc2)cc1,0,i,3,i,i
O=C(c1ccc(Cn2c(=O)[nH]c3ccccc3c2=O)cc1)N1CCN(c2ccc(Cl)cc2)CC1,-1,/,-2,/,/
CC(=O)Nc1ccc(N2CCN(Cc3ccccc3F)CC2)cc1,-1,i,-2,i,i
Cc1ccc2cc3cc(C(=O)N4CCN(C(=O)c5ccco5)CC4)sc3nc2c1,2,/,3,/,/
CCOC(=O)CCn1nc(-c2ccc(Cl)cc2)cc1N,54*,/,51*,/,/
O=C(NCc1ccccc1)c1cc(-c2cccc(O)c2)on1,-2,/,4,/,/
O=C(NCC1COc2ccccc2O1)C1C2C=CC3(CN(Cc4ccccc4Cl)C(=O)C13)O2 (stereo not drawn),3,/,-6,/,/
Cc1nn(C)c(C)c1S(=O)(=O)N1CCC(C(=O)NC2CCCCC2)CC1,-2,/,-4,/,/
CCOC(=O)N1CCC(NC(=O)c2cccn3c(=O)c4cc(Br)ccc4nc23)CC1,-1,/,-3,/,/
O=C(Nc1sccc1C(=O)NCc1ccco1)c1cccnc1,-4,i,1,i,i
CCn1cc(C(=O)NC2CCCCCC2)c(=O)c2cc(S(=O)(=O)N3CCCCC3)ccc21,28,/,-5,/,/

# The final 2 compounds of the part above are carried over, then new ones follow.
molecule,FPR binder,VCAM-1 augmentation,FPRL1 ligand,VCAM-1 down,VCAM-1 imaging
O=C(Nc1sccc1C(=O)NCc1ccco1)c1cccnc1,-4,i,1,i,i
CCn1cc(C(=O)NC2CCCCCC2)c(=O)c2cc(S(=O)(=O)N3CCCCC3)ccc21,28,/,-5,/,/
CCOc1ccccc1NC(=O)C1CCN(S(=O)(=O)c2cccc3cccnc23)CC1,0,/,-6,/,/
COc1cc(C2Nc3cccc4cccc(c34)N2)cc(OC)c1O,-2,i,-3,73*,i
O=C(c1ccc2c(c1)OCCO2)N1CCCCC1,-2,i,3,i,i
Nc1nonc1-c1noc(-c2ccc(Br)o2)n1,-7,/,-4,/,/
Cc1cc(C(F)(F)F)nc(SCC(=O)NC2=NC(=O)C(C)S2)n1 (stereo not drawn),-1,i,-1,i,i
CC(C)(C)n1nnnc1C(c1cccs1)N1CCN(Cc2ccccc2)CC1 (stereo not drawn),2,i,-4,i,i
CC(=O)Nc1ccc(NS(=O)(=O)c2ccc(Cl)c(C(=O)O)c2)cc1,4,i,4,i,i
Cc1ccccc1Cc1c(C)nc2c(C(=O)NCc3ccco3)cnn2c1C,-3,/,5,/,/
Clc1ccc(Cl)c(-c2nn3c(COc4ccccc4)nnc3s2)c1,14,i,9,i,i
COc1ccc(OC)c(-n2cnc3cc(C(=O)O)ccc32)c1,1,/,10,/,/
Cc1cc(C)cc(NC(=O)c2cc(S(=O)(=O)NCc3ccco3)ccc2F)c1,-7,/,-5,/,/
COc1ccc(Cc2nc(-c3ccc(Br)cc3)no2)cc1,-4,i,3,i,i

# Continuation.
molecule,FPR binder,VCAM-1 augmentation,FPRL1 ligand,VCAM-1 down,VCAM-1 imaging
COc1cccc2sc(N(C)c3ccccc3)nc12,6,/,6,/,/
COc1cc(C2CC(=O)c3c([nH]c(C(=O)OCCOC(C)C)c3C)C2)cc(OC)c1OC (stereo not drawn),8,/,1,/,/
O=C1C2CCCN2C(c2ccc(F)cc2)N1c1nccs1 (stereo not drawn),-2,/,4,/,/
COCCn1c(SCc2csc(-c3ccccc3)n2)nc2ccccc21,-3,i,-5,i,i
CCCNC(=O)CS(=O)(=O)Cc1nc(-c2cccc(OC)c2)oc1C,17,i,4,i,i
CCCN(CCC)CCCNS(=O)(=O)c1ccc2c(c1)oc(=O)n2C,-12,i,-10,i,i
CCOC(=O)N1CCC(Nc2c(NCCCOC)c(=O)c2=O)CC1,1,/,-6,/,/
CCOC(=O)c1ccc(NC2OC(=O)c3ccccc32)cc1 (stereo not drawn),5,i,-2,i,i
O=C(C1CCCO1)N1CCN(Cc2nc3ccccc3c(=O)[nH]2)CC1 (stereo not drawn),7,i,0,i,i
CCOC(=O)CSc1nc2c(sc(=S)n2Cc2ccco2)c(=O)n1-c1ccc(F)cc1,-4,/,4,/,/
CCC(Sc1nc2n[nH]c(C)c2c(=N)n1-c1ccc(C)c(Cl)c1)C(=O)N1CCOCC1 (stereo not drawn),-1,/,-4,/,/
C=CCn1c(=N)n(CC(O)COc2ccc(OC)cc2)c2ccccc21 (stereo not drawn),-10,/,-4,/,/

# Going on with the list:
molecule,FPR binder,VCAM-1 augmentation,FPRL1 ligand,VCAM-1 down,VCAM-1 imaging
CC(C)Cn1c(N)c(C(=O)COC(=O)c2cc(-c3ccco3)nc3ccccc23)c(=O)n(C)c1=O,4,i,15,i,i
CCC(C)Sc1nnc(Cc2cc(=O)[nH]c(=O)[nH]2)n1-c1ccc(F)cc1 (stereo not drawn),-6,/,1,/,/
Cc1ccc2cc(CN(CC3CCCO3)S(=O)(=O)c3ccc4c(c3)OCCO4)c(=O)[nH]c2c1C (stereo not drawn),3,i,-2,i,i
CSc1ccccc1NC(=O)c1cnc2n(c1=O)CCS2,9,i,-5,i,i
COC(=O)c1ccc(C(=O)OC)c(NC(=O)c2ocnc2C)c1,-15,/,-15,/,/
COc1ccccc1NC1=NC2(CCCC2)N=C(N)N1,-1,i,-3,i,i
N#Cc1nc(-c2ccco2)oc1N1CCN(c2cccc(Cl)c2)CC1,-2,i,-11,i,i
CCCc1cc(C(=O)NCc2cccs2)no1,4,/,9,/,/
Cn1c(SCC(=O)N2CCOCC2)nnc1-c1cccc(NC(=O)c2ccccc2F)c1,0,i,-3,i,i
C=CCOc1nc2c(c(=O)n(C)c(=O)n2C)n1Cc1c(Cl)cccc1Cl,2,i,-2,i,i
COc1ccccc1-c1cc(C(=O)NCCCn2ccnc2)no1,1,i,2,i,i
C=CCn1c(SCc2nc(N)nc(N(C)C)n2)nnc1-c1cccnc1,9,/,5,/,/

# The results go on:
molecule,FPR binder,VCAM-1 augmentation,FPRL1 ligand,VCAM-1 down,VCAM-1 imaging
Nc1nc(N2CCCCC2)nc(N(c2ccccc2)c2ccccc2)n1,-6,i,4,i,i
COC(=O)CCCC[C@H]1SC[C@H]2NC(=O)N[C@]21O,-3,/,-7,/,/
O=C(CP(=O)(CO)CO)c1ccc(Cl)cc1,1,i,-1,i,i
CC1=C(C(=O)OC2CCCCC2)C(c2cccnc2)n2ncnc2N1 (stereo not drawn),1,i,0,i,i
CCc1nnc(NC(=O)CSc2nnc(CSc3nc(C)cc(C)n3)n2CC)s1,-9,i,4,i,i
CCCn1cc(S(=O)(=O)CC(=O)N2CCc3ccccc32)c2ccccc21,6,/,-5,/,/
O=c1[nH]c(SCc2ccc(F)cc2)nc2c1cnn2-c1ccc(F)cc1,-1,i,-3,i,i
Cc1nc(NC(=O)c2ccccc2)sc1-c1csc(NCc2ccco2)n1,-3,i,-4,i,i
Cc1ccsc1-c1nc(CSCC(=O)NCc2ccc3c(c2)OCO3)c(C)o1,4,/,-1,/,/
O=C(Cc1ccccc1)Nc1c2c(nn1-c1cccc(Cl)c1)CS(=O)(=O)C2,12,/,-3,/,/
COc1cccc(NS(=O)(=O)c2nc3nc(C)cc(C)n3n2)c1,-3,/,-1,/,/
O=C(NCc1ccco1)c1cc(-c2ccccc2)c(N2CCOCC2)s1,10,/,4,/,/

# Going on with the list:
molecule,FPR binder,VCAM-1 augmentation,FPRL1 ligand,VCAM-1 down,VCAM-1 imaging
CN1C(=O)NC(c2ccccc2)C2=C1CN(Cc1ccco1)C2=O (stereo not drawn),0,/,14,/,/
COC(=O)c1ccc(CSc2ncnc3c2oc2ccccc23)o1,7,/,-14,/,/
C=CCn1c(SCC(=O)N2CCN(c3ccc(F)cc3)CC2)nnc1-c1ccco1,-1,/,-6,/,/
CCc1cc2c(NCCC(=O)O)nc(C)nc2s1,-1,i,2,i,i
COc1ccccc1-c1nc(C#N)c(N2CCN(c3ccccc3)CC2)o1,0,i,-9,i,i
O=C(Cn1ncc2c(=O)oc3ccccc3c21)N1CCN(c2ccccn2)CC1,0,/,-3,/,/
CN(C)C(=O)N1CCC(C(=O)NCc2ccc(F)cc2Cl)CC1,4,/,-4,/,/
Cc1cc(C)nc(N(C#N)CC(=O)N2CCC(C(N)=O)CC2)n1,-3,i,0,i,i
CCC(=O)N1CCc2cc(S(=O)(=O)Nc3ccc4c(c3)OCCO4)ccc21,-8,/,1,/,/
Cc1nc2c(cnn2-c2ccc(Cl)cc2)c(=O)n1-c1ccc2c(c1)OCCO2,-2,/,1,/,/
CCc1nnc(NC(=O)CCC(=O)O)s1,-4,/,0,/,/
O=C(O)C1C2CCC(C2)C1C(=O)NCc1ccco1 (stereo not drawn),-7,/,-3,/,/

# More results
molecule,FPR binder,VCAM-1 augmentation,FPRL1 ligand,VCAM-1 down,VCAM-1 imaging
CSc1ccc(-c2cc(=O)c3ccccc3o2)cc1,10,i,-5,i,i
COCCn1c(=O)[nH]c2cc(C(=O)NCCCN3CCN(c4ccc(F)cc4)CC3)ccc2c1=O,-3,i,4,i,i
O=C(Nc1ccc(F)cc1)c1cccc2c1C(=O)N(Cc1ccccn1)C2,-2,i,-3,i,i
COc1cccc(C(=O)Cn2c(=O)n(CC3CCCO3)c(=O)c3ccccc32)c1 (stereo not drawn),3,/,3,/,/
Cc1cc(C(=O)Nc2c(C)nn(Cc3ccccc3Cl)c2C)no1,0,/,-6,/,/
CC(NC(=O)c1ccc(Cl)cc1)C(=O)N1CCCCC1 (stereo not drawn),-1,/,3,/,/
O=C(c1cc(-c2ccccc2O)on1)N1CCc2ccccc2C1,10,/,-4,/,/
CCN(C(=O)c1c(-c2ccccc2)noc1C)c1ccccc1,17,i,-6,i,i
CCOC(=O)N1CCN(C(=O)CSc2cc(C)nc3c(-c4ccccc4OC)c(C)nn23)CC1,-2,i,-2,i,i
COC(=O)c1ccc(C2CC(=O)Nc3cc(OC)c(OC)c(OC)c32)cc1 (stereo not drawn),-4,i,-2,i,i
Cc1ccnc(NS(=O)(=O)c2ccc(NC(=O)Cc3cccs3)cc2)n1,-7,i,3,i,i
CN(C(=O)c1ccccn1)c1nnc(-c2ccncc2)s1,-3,i,3,i,i

# (listing goes on)
molecule,FPR binder,VCAM-1 augmentation,FPRL1 ligand,VCAM-1 down,VCAM-1 imaging
O=C(NCc1cccs1)c1csc2c1CCCCC2,5,/,1,/,/
CC(C)NC(=O)NC(=O)COc1cccc2c1OC(C)(C)C2,-1,i,-3,i,i
S=c1nc(C2CC2)[nH]c2ccccc12,-6,i,-13,i,i
O=C1C2CCC(C(O)C2)N1Cc1ccccc1 (stereo not drawn),6,/,-1,/,/
COc1ccc(Nc2cc(C(=O)NCCCN3CCN(C)CC3)c3ccccc3n2)cc1OC,-1,/,19,/,/
CCCCOC(=O)CSc1nc2c(cc1C#N)C(=O)CC(C)(C)C2,6,i,-3,i,i
CCOC(=O)c1ccccc1NC(=O)CSc1nccn1C,5,i,0,i,i
Cc1cc(Nc2ccccc2F)n2ncnc2n1,-8,i,-4,i,i
Cc1onc(-c2c(Cl)cccc2Cl)c1C(=O)N1CCc2ccccc21,-2,i,2,i,i
CSc1snc(SCC(N)=O)c1C#N,-3,/,4,/,/
Cc1nc(-c2ccc(NC(=O)c3cccs3)cc2)cs1,7,i,4,i,i
Cc1cc(/C(=N/O)C(C)(C)NO)ccc1Cl,1,/,4,/,/

# Additional structures follow:
molecule,FPR binder,VCAM-1 augmentation,FPRL1 ligand,VCAM-1 down,VCAM-1 imaging
O=C(CN(c1ccc(F)cc1)S(=O)(=O)c1ccc2c(c1)OCCO2)N1CCOCC1,-2,/,-3,/,/
O=C(NCCCN1CCN(c2cccc(Cl)c2)CC1)c1nc(-c2ccncc2)no1,-1,/,2,/,/
CCOC(=O)c1sc2ncn(CC(=O)N(CC)CC)c(=O)c2c1C,1,/,2,/,/
CCOC(=O)C1CCN(c2c(N3CCCCCC3)c(=O)c2=O)CC1,-3,i,1,i,i
CCOc1ccc(N(CC(=O)Nc2cccc(Cl)c2)S(=O)(=O)c2c(C)noc2C)cc1,-8,/,-10,/,/
COc1ccc(-c2csc(=Nc3ccccc3)n2CCO)cc1,4,/,-5,/,/
O=C(CS(=O)(=O)c1cn(Cc2ccc(Cl)cc2)c2ccccc12)N1CCCC1,3,i,-2,i,i
CCOCCCn1c(=N)c(C(=O)NCCN2CCOCC2)cc2c(=O)n3cccc(C)c3nc21,-5,/,-4,/,/
COc1ccccc1C1C(C(=O)c2cc3ccccc3o2)=C(O)C(=O)N1CCN1CCOCC1 (stereo not drawn),4,/,-9,/,/
